# Screening results as filed in PubChem BioAssay.
# RN4220 kill: growth inhibition of S. aureus RN4220, primary screen, OD600; 16 h; inhibition, % (concentration not given with the values); AID 1259311, 2017; 330,000 tested, 0.33% active;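 active = z-score of -3 or lower and OD600 up to 0.18 on both plates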;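 also: plate controls were untreated cells for no effect and reference antibiotic for full effect; stock transfer was 100 nL into about 80 µL; one replicate is shown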
# PrP UTR inh: inhibition of PrP 5' UTR reporter expression; inhibition, % (concentration not given with the values); 340,000 tested, 0.35% active; cell-based PrP 5' UTR mRNA reporter, plate reader;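 active = every replicate at 50% or more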;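 also: 0 = median of the neutral control wells; tested in H4 reporter cells; numbers are from one replicate; inactives centre near -14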
# Bead autofluor: compound fluorescence in toxin protease inhibitor counterscreen. AID 624483. fluorescence intensity (no concentration beside the values). 360,000 tested, 3.1% active. compound autofluorescence counterscreen, microsphere flow cytometry; hits give high values;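 active = at least 3 SD above the mean of all compounds, about 16000 in these data; inconclusive = too few beads counted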;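 also: 100 nL of 1 mM stock went into each well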
# Sa ugtP lethal: growth inhibition of ugtP-null S. aureus, primary screen, RN4220 ugtP deletion, OD600 | growth inhibition, % (no concentration beside the values) | 16 h; some inactives read as strong as hits | 330,000 tested, 0.54% active | AID 1259309, 2017;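 active = z-score under -3 and OD600 up to 0.15 on both plates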;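 also: plate controls were untreated wells for no effect and antibiotic for full effect; wells of about 80 µL received 100 nL stock; the first replicate is given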
# BJeLR lethal: MLPCN primary cell-based screen for lethality selective to Ras in HRASV12 cells; BJeLR (HRASV12) viability, CellTiter-Glo ATP luminescence, 48 h; reference of the scale not given here; inhibition, % (test concentration not listed); 300,000 tested, 0.17% active;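 active = replicate mean above 50%; inconclusive = above 50% but judged a plate artefact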;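 also: 50 nL library stock added to about 25 µL; numbers are from one replicate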
# Mtb hypoxia inh: PubChem AID 1159583. fluorescence inhibition, % (test concentration not listed). M. tuberculosis hypoxia-regulated fluorescent reporter, fluorescence. 300,000 tested, 0.1% active;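 active = 35 to 45% if threefold the growth effect, above 45% if 1.5-fold the growth effect; inactive = the rest, general growth blockers included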;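 also: wells of about 50 µL received 100 nL stock; 0% = vehicle wells and 100% = reference inhibitor wells; whole bacteria with a GFP reporter of the hypoxia response; strong numbers were not always called active; many hits fall short of the cut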
# Mtb hypoxia inh growth: second read-out of Mtb hypoxia inh, no call of its own (marks repeat the call); growth inhibition, %; measured here: M. tuberculosis growth (absorbance);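 0% = vehicle and 100% = reference antibiotic; read after six days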
# Active calls of the source: *; ? = inconclusive; . = no result given.
[1] CCOC(=O)c1cn[nH]c1N
[2] CC(=NNC(=O)CNC(=O)COc1ccccc1)c1ccc(Cl)cc1
[3] COC(=O)c1ccccc1NC(=O)c1cc([N+](=O)[O-])nn1Cc1ccccc1
[4] ON=Cc1ccc(OCc2ccccc2F)c(Cl)c1
[5] Cc1c(Cl)cccc1NC(=O)CCNC(=O)N1CC(=O)Nc2ccccc21
[6] CC(=O)NC1C(=O)N=C(SCC(=O)NC2CCCCC2)NC1=O (stereo not given)
[7] Cc1cccc(OCC(=O)NC(=S)NNC(=O)c2ccncc2)c1
[8] c1ccc2c(c1)-c1ccccc1C2N1CCOCC1
[9] CCOc1ccc2nc(NC(=O)c3cnc(C)cn3)sc2c1
[10] CC(Oc1ccc2ccc(=O)oc2c1)C(=O)NC1CCN(Cc2ccccc2)CC1 (stereo not given)

Screen / compound no.	1	2	3	4	5	6	7	8	9	10
RN4220 kill	-6.9	3.8	9.5	12	6.4	2.6	.	3.5	5.0	2.7
PrP UTR inh	0	.	-4	.	-11	6	-20	3	-20	13
Bead autofluor	3690	.	2063	.	5958	8428	5323	4008	2874	4415
Sa ugtP lethal	5	4	-6	16	3	5	.	-1	6	7
BJeLR lethal	10	.	5	.	0	0	5	.	10	2
Mtb hypoxia inh	2	-1	-4	12	-3	8	.	12	5	9
Mtb hypoxia inh growth	3	-2	-5	7	3	6	.	19	5	-5

[11] O=C(NC1CCCC1)c1ccc(Br)c(S(=O)(=O)N2CCCCC2)c1
[12] CCc1cccc(C)c1NC(=S)NCc1ccc2c(c1)cc(C)n2C
[13] CN1C(=O)N(C)C(=O)C2(Cc3cc([N+](=O)[O-])ccc3N3CCN(C(=O)c4ccccc4)CC32)C1=O (stereo not given)
[14] O=C(CC1CCCC1)N1CCN(S(=O)(=O)c2ccc(F)cc2)CC1
[15] CCCc1cc2c(-c3ccccc3)cc(=O)oc2cc1OCc1ccc(C(=O)O)o1
[16] CN(CC(O)COc1ccc(OCC(O)CN(C)C2CCCCC2)cc1)C1CCCCC1 (stereo not given)
[17] CCOc1ccc(OCCC(=O)NNC(=O)c2cc(C)oc2C)cc1
[18] O=C1c2ccccc2C(=O)N1CCCCN(C(=O)c1ccco1)c1ccc(Cl)cc1
[19] COc1ccc(S(=O)(=O)N2CCCCCC2)cc1C(=O)N(C)Cc1ccccc1F
[20] O=C(NC1CCCCC1)C(c1ccccc1)N1CCc2ccccc21 (stereo not given)

Screen / compound no.	11	12	13	14	15	16	17	18	19	20
RN4220 kill	.	25	-4.5	0.8	6.7	-2.9	0.6	-4.4	2.3	-0.9
PrP UTR inh	-2	-27	-23	-7	-20	2	-31	-11	0	-21
Bead autofluor	4611	1803	5475	3402	3617	2467	6569	3220	.	5982
Sa ugtP lethal	.	-11	0	4	10	0	1	-30	5	-5
BJeLR lethal	-1	-7	5	.	-13	-2	4	-5	-2	3
Mtb hypoxia inh	.	-13	-12	0	2	4	6	6	-1	-8
Mtb hypoxia inh growth	.	7	-2	12	10	4	1	5	14	-6

# 4 entries picked at random from the list so far:
[19] COc1ccc(S(=O)(=O)N2CCCCCC2)cc1C(=O)N(C)Cc1ccccc1F
[17] CCOc1ccc(OCCC(=O)NNC(=O)c2cc(C)oc2C)cc1
[20] O=C(NC1CCCCC1)C(c1ccccc1)N1CCc2ccccc21 (stereo not given)
[18] O=C1c2ccccc2C(=O)N1CCCCN(C(=O)c1ccco1)c1ccc(Cl)cc1

Screen / compound no.	19	17	20	18
RN4220 kill	2.3	0.6	-0.9	-4.4
PrP UTR inh	0	-31	-21	-11
Bead autofluor	.	6569	5982	3220
Sa ugtP lethal	5	1	-5	-30
BJeLR lethal	-2	4	3	-5
Mtb hypoxia inh	-1	6	-8	6
Mtb hypoxia inh growth	14	1	-6	5

# Going on with the list:
[21] COc1ccc(C)cc1NC(=O)c1cccc(C(=O)Nc2cc(C)ccc2OC)n1
[22] O=C(O)c1nccnc1C(=O)Nc1ccccc1-c1ccccc1
[23] COC(=O)C(C)Sc1ccc2nnc(-c3ccccc3)n2n1 (stereo not given)
[24] Cc1cccc(C=NNC(=O)Cn2nc(C)cc2C)n1
[25] COc1ccc(OC)c(NC(=O)CSCC(=O)O)c1
[26] COc1ccc(C(=O)NNC(=O)c2ccc(S(=O)(=O)N3CC(C)OC(C)C3)cc2)cc1 (stereo not given)
[27] CCOC(=O)N1CCN(C(=O)c2ccc(NC(=O)CC)cc2)CC1
[28] Nc1nc(Cl)nc(N(c2ccccc2)c2ccccc2)n1
[29] CCc1c(C(=O)NN=Cc2cn[nH]c2-c2ccc(F)cc2)csc1C
[30] Cc1ccc(NS(=O)(=O)c2cccc3nsnc23)cc1C

Screen / compound no.	21	22	23	24	25	26	27	28	29	30
RN4220 kill	-0.1	4.2	6.7	-0.6	0.6	1.4	0.9	2.8	-1.1	2.0
PrP UTR inh	-36	-21	-13	.	-17	-34	-1	-14	.	-1
Bead autofluor	6224	?	2076	.	9622	2470	10463	2105	.	2866
Sa ugtP lethal	-1	2	-4	2	6	-4	3	14	0	11
BJeLR lethal	-3	-3	-3	.	5	-6	-6	2	.	6
Mtb hypoxia inh	12	11	7	-2	6	-11	15	10	-8	18
Mtb hypoxia inh growth	5	-1	4	0	3	-2	0	0	1	6

[31] O=C(Nc1ccccc1C(=O)NCC1CCCO1)c1ccco1 (stereo not given)
[32] C/C(=N\Nc1ccccn1)c1ccc(N2CCOCC2)cc1
[33] COc1ccc(NC(=O)COC(=O)c2cc(C)oc2C)c([N+](=O)[O-])c1
[34] CCOc1c(Cl)cc(Cl)cc1CNCCNCCO
[35] O=C(CNS(=O)(=O)c1c(Cl)cccc1Cl)OCc1csc(-c2ccccc2)n1
[36] CCCCOc1ccccc1NC(=O)c1scc2c1OCCO2
[37] Cn1cc(S(=O)(=O)N2CCc3ccccc3C2)c(=O)n(C)c1=O
[38] CC(=O)Nc1ccc(S(=O)(=O)N(C)CC(=O)OCC(=O)Nc2cc(C)on2)cc1
[39] Cc1cc(C)c(S(=O)(=O)NCCc2ccncc2)c(C)c1
[40] O=C(Nc1nc(-c2ccccc2Cl)cs1)c1cccnc1

Screen / compound no.	31	32	33	34	35	36	37	38	39	40
RN4220 kill	0.3	.	1.2	4.3	-1.8	-1.1	-11	3.1	0.3	2.1
PrP UTR inh	-20	-53	-24	1	-36	-5	-9	-21	-7	-9
Bead autofluor	9953	4613	?	6895	2523	3760	4348	.	3847	20683*
Sa ugtP lethal	-5	.	1	8	-7	-1	-6	8	-2	-11
BJeLR lethal	11	1	.	7	-10	-11	1	.	6	-8
Mtb hypoxia inh	9	.	7	12	2	-5	10	11	-10	0
Mtb hypoxia inh growth	12	.	5	10	0	-5	4	5	5	0

[41] O=C1NCCCC1C(=O)Nc1cccc(C(F)(F)F)c1 (stereo not given)
[42] CC(C(=O)N1CCOCC1)N1C(=O)C2C3C=CC(C4CC34)C2C1=O (stereo not given)
[43] Cc1ccc(CN2C(=O)c3ccccc3Sc3ccc(C(=O)NCCN4CCOCC4)cc32)cc1
[44] CN(CC(=O)Nc1ccccc1Cl)C(=O)COC(=O)c1cccs1
[45] CCN(CC)S(=O)(=O)c1cc(C(=O)Nc2nncs2)c(Cl)cc1Cl
[46] COCCCNC(=O)CCCCCNS(=O)(=O)c1ccc(Br)cc1
[47] O=C(NNC(=S)Nc1ccc(Br)cc1Cl)c1ccncc1
[48] S=c1[nH]nc(-c2cc(-c3ccccc3)n[nH]2)n1N=C/C(Br)=C/c1ccccc1
[49] COC(=O)C1=CN(C)C=C(C(=O)OC)C1c1ccc(O)c(OC)c1
[50] Cc1ccc(/C=N/NC(=O)Cc2cccn2C)s1

Screen / compound no.	41	42	43	44	45	46	47	48	49	50
RN4220 kill	6.7	1.4	3.3	-0.9	14	1.1	1.5	-0.8	-1.0	.
PrP UTR inh	2	-12	-17	7	-18	-3	-11	.	9	-30
Bead autofluor	2178	2576	4655	2969	11574	4197	10227	.	23196*	2158
Sa ugtP lethal	3	2	7	-8	3	3	4	-3	-4	.
BJeLR lethal	-7	-4	-4	.	19	-2	-1	.	-5	4
Mtb hypoxia inh	.	-4	8	-10	-2	10	3	.	0	.
Mtb hypoxia inh growth	.	5	-6	0	1	5	0	.	16	.

[51] O=C(COc1ccc2c(c1)oc(=O)c1ccccc12)NC(Cc1ccc(Cl)cc1)C(=O)O (stereo not given)
[52] CC1=CC(=C(C#N)C#N)C=C(C)N1Cc1ccc(Cl)cc1
[53] O=C(O)c1ccc(NS(=O)(=O)c2ccc(C(=O)Nc3ccccc3)cc2)cc1
[54] CCOc1ccc(OCCC(=O)NNC(=O)c2ccncc2)cc1
[55] COc1ccc(Cl)cc1C(=O)Nc1ccc(NC(=O)C(C)C)cc1
[56] CN(C)S(=O)(=O)c1cccc(COC(=O)c2cccnc2Cl)c1
[57] CCCN1CCN(C(=O)c2noc3c2COc2ccc(C)cc2-3)CC1
[58] COc1ccc(S(=O)(=O)N2CCC(Nc3ccccc3Cl)CC2)cc1
[59] CN1CCN(S(=O)(=O)c2ccc(NC(=S)NC(=O)C3CCC3)cc2)CC1
[60] COc1ccc(-n2cnnc2SCc2cnc(-c3ccccc3)s2)cc1

Screen / compound no.	51	52	53	54	55	56	57	58	59	60
RN4220 kill	4.4	-0.4	-4.0	3.2	6.4	0.5	12	-0.7	-2.1	7.3
PrP UTR inh	-9	-10	2	-17	-24	-19	-14	-14	-10	-28
Bead autofluor	5210	4632	6786	6654	3208	3759	11959	6364	2442	8996
Sa ugtP lethal	1	-2	3	2	6	1	9	4	22	-9
BJeLR lethal	-5	6	-1	.	7	0	-5	0	-7	-7
Mtb hypoxia inh	.	-16	3	.	5	8	-2	7	9	5
Mtb hypoxia inh growth	.	-3	7	.	11	10	10	17	0	15

[61] COc1ccccc1OCCC(=O)OCC(=O)Nc1ccc(S(=O)(=O)N2CCOCC2)cc1
[62] CC(=O)c1cn(Cc2ccccc2)c(=O)n(Cc2ccc(F)cc2)c1=O
[63] CC(=O)Oc1ccc(C(=O)Cc2ccc3ccccc3n2)c(O)c1C
[64] CCOc1cccc(C=NCCc2ccc(OC)c(OC)c2)c1O
[65] Nc1nc(N)nc(-c2cccc(Cl)c2)n1
[66] CCOC(=O)N1CCC(NC(=O)c2ccc3nc4ccccc4c(=O)n3c2)CC1
[67] NC(=O)c1ccc(NC(=O)COC(=O)CCC(=O)c2ccc(Cl)cc2)cc1
[68] Cc1ccc(S(=O)(=O)N(C)C)cc1NC(=O)c1cc(=O)[nH]c2ccccc12
[69] Cc1ccc(C(=O)ON=C(N)c2ccc(C(F)(F)F)cn2)cc1
[70] CC(Sc1nn(-c2ccc(Cl)cc2)c(=S)s1)C(=O)NCC1CCCO1 (stereo not given)

Screen / compound no.	61	62	63	64	65	66	67	68	69	70
RN4220 kill	4.8	-2.2	3.2	2.7	4.5	1.8	5.6	1.2	7.4	1.8
PrP UTR inh	-27	-19	-93	-11	-22	.	-24	-33	.	-27
Bead autofluor	4414	2520	2882	4549	3812	.	2575	4290	.	5978
Sa ugtP lethal	6	8	1	9	0	4	6	4	11	7
BJeLR lethal	1	-1	0	5	.	10	-1	-7	.	15
Mtb hypoxia inh	14	7	7	3	8	-7	-3	9	7	4
Mtb hypoxia inh growth	2	-10	-6	-16	6	-2	0	1	12	4

[71] O=C(Nc1ccc(Br)cn1)C1CCCN1S(=O)(=O)c1ccccc1 (stereo not given)
[72] O=C(COC(=O)c1ccc([N+](=O)[O-])o1)NC12CC3CC(CC(C3)C1)C2
[73] Cc1ccc(OCCn2c(=S)[nH]c3ccccc32)c(C(C)C)c1
[74] CC1=C(C(=O)OC(C)C)C(c2cccc(F)c2)N2C(=O)C(C)SC2=N1 (stereo not given)
[75] CC(=O)c1ccc(N2CCN(C(=O)CCS(=O)(=O)c3ccc4c(c3)CCN4C(C)=O)CC2)cc1
[76] O=C(N/N=C/c1ccco1)c1cc(-c2ccc3ccccc3c2)n[nH]1
[77] Cc1cc[n+](-c2nc3ccccc3nc2[N-]S(=O)(=O)c2cccs2)cc1C

Screen / compound no.	71	72	73	74	75	76	77
RN4220 kill	-1.1	8.4	11	-21	3.6	.	3.7
PrP UTR inh	-10	-23	8	-9	-16	-13	-19
Bead autofluor	2363	3729	3388	2786	4738	2392	2126
Sa ugtP lethal	-5	21	-28	-10	-1	.	1
BJeLR lethal	0	.	-8	7	1	-6	1
Mtb hypoxia inh	-1	10	-6	6	8	.	11
Mtb hypoxia inh growth	15	25	1	-2	7	.	5
